Anthrax LT inh: qHTS Assay for Anthrax Lethal Toxin Internalization. Cells, anthrax lethal toxin internalization, FRET ratio (460/530). Potency, µM (series often up to 40 µM), without a hit: at the top dose activity change, negative = inhibition, actives largely listed as inhibitors. 70,000 tested, 0.67% active. AID 912, 2007; active = well fitted falling ratio curve with the 530 nm signal flat; inconclusive = other ratio curves, or a change in one channel alone; inactive = flat curves in the ratio and both channels; the % refers to the ratio; further: on the % scale 0 is the no-effect control and ±100 the full control effect; nearly all actives have a fitted effect of over 50% in size; tested in ME-180 cells; beta-lactamase reporter
Prx2 Sm inh: Schistosoma Mansoni Peroxiredoxins (Prx2). Schistosoma mansoni peroxiredoxin 2 (Prx2). S. mansoni Prx2 activity coupled to TGR/GSH (TGR is thioredoxin glutathione reductase), NADPH fluorescence loss, qHTS; some inactives read as strong as hits. Potency, µM. 65,000 tested, 0.07% active; active means full or partial inhibition curve with a strong effect at the top dose; inconclusive means weaker partial or single-point curve; inactive means no accepted curve; further: series up to 57 µM; many of its hits are not listed in these tables
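Prx2 activity was followed as the loss of NADPH fluorescence (ex 365/em 450 nm), read every 30 sec for 8 min after H2O2 start. The enzyme mix (50 nM Prx2, 25 nM TGR, GSH, NADPH; pH 7.4 phosphate buffer) was incubated with compound for 15 min at room temperature first.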
The depositor's hits bear a star; ? = inconclusive; nt = no result given; & = joins results of further samples; [ ] = another dose, or the depositor's remark. Potency means the concentration at half of the fitted maximal effect.

SMILES | Anthrax LT inh | Prx2 Sm inh
C=CCn1c(Cc2csc(N)n2)nnc1SCC(=O)Nc1ccc(C(=O)OCC)cc1 | 6% | >57
O=c1c(-c2ccccc2)nc2cnc(Oc3cccc(Cl)c3)nc2n1C[C@H]1CCCO1 | ? | >57
Cc1ccc(C)c2[nH]c(=O)c(CN(CCN3CCCC3)C(=O)Nc3cccc(Cl)c3)cc12 | 7.9µM* | >57
CC(=O)N[C@H](CS)C(=O)O | -3% | >26
Cc1cc2oc(=O)cc(CN3CCCc4ccccc43)c2cc1C | -9% | >57
COc1cc2c(cc1OC)CN(C(=O)c1cc3ccccc3oc1=O)CC2 | -9% | >57
COc1ccc(CCNC(=O)C2CCCCC2C(=O)O)cc1OC (configuration not stated) | -3% | >57
CCn1c2ccccc2c2cc(C3C(C#N)=C(N)Oc4n[nH]c(COC)c43)ccc21 (configuration not stated) | -8% | >57
Cc1ccc(-n2ncc3c(=O)n(CC#N)cnc32)cc1 | -14% | >57
O=C(c1ccncc1)N1CCC2(CCCN(c3ncccn3)C2)CC1 | 11% | >57
CN(C)CCNc1ccccn1 | ? | >57
COc1ccc(Cn2c(=O)[nH]c3cc(C(=O)NCCCN4CCCC4=O)ccc3c2=O)cc1 | 0% | >57
COc1ccc(CNC(=O)C2CCN(S(=O)(=O)N3CCOCC3)CC2)cc1 | 0% | >57
c1ccc(-c2nnc(-c3ccco3)o2)cc1 | -3% | >57
C=CCn1c(=O)c2ccccc2n2c(SCc3csc(-c4ccccc4)n3)nnc12 | ? | >57
CCOC(=O)CCN1C(=O)[C@H]2[C@H]3[C@H](O)[C@H](O)C/C(=N/NC(=O)OCc4ccccc4)[C@@H]3CC[C@@H]2C1=O | 5%[8 µM] | nt
Cc1ccc(NC(=O)C2CCCN2S(=O)(=O)c2ccc3c(c2)CCC(=O)N3)cc1Cl (configuration not stated) | -10% | >57
Cc1cccc(N2CCc3c2nc2ccccc2c3N)c1 | ? | >57&>57
CC(=O)c1c(O)c(C)c(O)c2c1OC1=CC(=O)[C@H](C(C)=O)C(=O)[C@]12C | ? | >57
Cc1ccc(S(=O)(=O)N=Nc2c(O)[nH]c3cc(O)c(C(=O)O)cc23)cc1 | -8%[8 µM] | >57
Cc1ccc(-c2nnn(CC(=O)Nc3ccccc3N3CCOCC3)n2)cc1 | -8% | >57
Cc1[nH]nc2c1C(c1ccoc1)C(C#N)=C(N)O2 (configuration not stated) | -24% | >57
CCOC(=O)N1CCC(NCCNC(=O)c2cccs2)CC1 | -4% | >57
CC(=O)OC1(c2ccccc2)CCN(C)C2CCCCC21 (configuration not stated) | -2% | >57
O=C(c1ccncc1)N1CCC2(CC1)CCN(c1cccc(-c3ccccc3)c1)CC2 | -12% | >57
(further entries)
SMILES | Anthrax LT inh | Prx2 Sm inh
CCn1c(SCC(=O)Nc2cccc(C(C)=O)c2)nnc1C(C)C | -1% | >57
O=C(NCCN1CCN(c2ccccc2)CC1)C1(S(=O)(=O)c2ccc(Cl)cc2)CC1 | -10% | >57
O=C(Nc1nnc(-c2ccco2)s1)c1ccccc1 | 1% | nt
CCCn1c(O)c(CN2CCCC(C)C2)c(C)c(C#N)c1=O (configuration not stated) | -3% | >57
COc1ccc(C2C3=C(CCCC3=O)Nc3nc(SCc4ccc(C(=O)O)cc4)nn32)cc1OC (configuration not stated) | -6% | >57
COc1ccc(NC(=O)CSc2nc3c(c(=O)n2-c2ccccc2)SCC3)c(OC)c1 | 3% | >57
CCOCCCNC(=O)c1ccc2c(c1)ncn2C1CCCC1 | 12% | >57
Cc1cccc(C2CC(c3ccc(Cl)cc3)Nc3nc(N)nn32)c1 (configuration not stated) | -2% | >57
COc1ccc(S(=O)(=O)NCc2cn3c(C)csc3n2)cc1F | 4% | >57
CCNc1oc(-c2cccc3ccccc23)nc1C#N | ? | >57
Cc1cc(C)n2cc(CSc3nnnn3C)nc2n1 | -1% | >57
CCN(CC)CCCCC1CCN(CC(=O)N2c3ccccc3C(=O)Nc3cccnc32)CC1 | -20% | nt
COc1cc(OC)cc(C(=O)Nc2cccc(C(C)=O)c2)c1 | 0% | nt
Cc1cc(-c2cc(C)c(N)c(C)c2)cc(C)c1N | ? | nt
CNC(=O)c1cc2cc(OC)ccc2n1CCN(C)C | -11% | nt
O=C(NC1CC2CCC(C1)N2C(=O)NCc1ccccc1)C1CC1 (configuration not stated) | -1% | >57
NC(=O)NC(Cc1ccccc1)C(=O)O (configuration not stated) | nt | >57
Cc1ccc(C)c(N2CCN(C(c3ccncc3)c3nnnn3Cc3ccccc3)CC2)c1 (configuration not stated) | ? | >57
C=CCNC(=O)CN(c1cccc(Br)c1)S(C)(=O)=O | -10% | nt
COc1ccccc1NC(=O)COC(=O)c1ccc(S(=O)(=O)NCc2ccco2)cc1 | -2% | >57
CCOc1ccc(OCC)c(NC(=O)CN2CCN(c3ccc(C)cc3C)CC2)c1 | ? | >57
CC1(C)CC(=O)C=C(NCCN2CCN(C(=O)Nc3ccc(Cl)c(Cl)c3)CC2)C1 | -4% | >57
CCN(CC)S(=O)(=O)c1cc(Br)c(C)cc1OC | -6% | >57
CCOc1ccc2nc(SCc3ccc(C(=O)OC)o3)[nH]c2c1 | 12% | >57
CCn1c(SCC(=O)Nc2cc(C)ccc2C)nnc1-c1cnccn1 | -11% | >57
The list goes on.
SMILES | Anthrax LT inh | Prx2 Sm inh
O=c1c2cc(-c3ccccc3)sc2ncn1/N=C/c1ccco1 | -3% | >57
O=C(O)CN(Cc1ccco1)S(=O)(=O)c1ccccc1 | -6% | nt
O=c1cnnc(SCCc2ccccc2)[nH]1 | ? | >57
O=C(Nc1cccc(F)c1)C1C2C=CC3(CN(CCCN4CCOCC4)C(=O)C13)O2 (configuration not stated) | -6% | >57
Cc1csc(=NC(=O)c2ccccc2)n1Cc1ccco1 | -7% | >57
CCOC(=O)N1CCN(c2c(N3CCOCC3)c(=O)c2=O)CC1 | -8% | >57
Cc1ccc(S(=O)(=O)NC2=NCN(Cc3ccccc3)CN2)cc1 | ? | >57
COC(=O)c1sccc1NC(=O)c1cc2c(s1)CCCC2 | ? | >57
CCCCNC(=O)C(C#N)c1nc2ccccc2nc1N1CCCC1 (configuration not stated) | ? | >57
Cc1cccc(C)c1-n1nnnc1SCSc1nnnn1-c1c(C)cccc1C | -17% | >57
Clc1nc(Cl)nc(Cl)n1 | -10% | nt
O=C(NCc1cccs1)C1CCN(S(=O)(=O)c2cccc3cccnc23)CC1 | 3% | >57
O=C(Cn1cnc2c(nnn2Cc2ccc(Cl)cc2)c1=O)NC1CCCC1 | -2% | >57
Cn1c(-c2ccc(Br)o2)nc2ccccc21 | -7% | >57
O=C(NCc1cccs1)c1ccccc1C(=O)NCc1cccs1 | -14% | >57
COc1ccccc1-c1nnc(Nc2nc3c(OC)cccc3s2)o1 | ? | >57
O=C(O)C1CCCCC1C(=O)Nc1ccc2c(c1)CCC2 (configuration not stated) | -7% | >57
CCCCCCCCCCCCCCCC[N+](C)(C)CCN(Cc1ccc(OC)cc1)c1ncccn1 | 2%[3.58 µM] | >57
Cn1c(Sc2nc3ccccc3n2C)nc2ccccc21 | -2% | >57
O=C(Nc1ccccc1F)C1C2C=CC3(O2)C1C(=O)N(c1cccnc1)C3C(=O)NC1CCCCC1 (configuration not stated) | 3% | >57
COc1cc(NC(=O)C2CCCN(S(=O)(=O)c3cnc[nH]3)C2)cc(OC)c1 (configuration not stated) | 8% | >57
O=C(O)C1(C(=O)O)CCN(S(=O)(=O)c2ccccc2)CC1 | 11%[8 µM] | >57
O=C(CC1C(=O)NCCN1C(=O)Nc1ccccc1)Nc1ccc2c(c1)OCCO2 (configuration not stated) | 3% | >57
O=C(CSc1nnc(-c2cccnc2)o1)c1cc2ccccc2oc1=O | -16% | >57
O=C(O)CCOc1ccc2c(c1)OCCO2 | -11% | >57
(next part)
SMILES | Anthrax LT inh | Prx2 Sm inh
CNC(=O)Cn1c(=O)n(C)c2ccccc21 | -1% | >57
OCCN1CCN(CC(O)COc2ccc3ccccc3c2)CC1 (configuration not stated) | 2% | >57
CC(=O)N1CCN(S(=O)(=O)c2ccc(S(=O)(=O)NC3CC3)cc2)CC1 | 2% | >57
CC(C)(C)C(=O)/C=C(\N)c1ccncc1 | -6% | >57
COc1ccc(OCCOC(=O)c2cccc(-n3cnnn3)c2)cc1 | -1% | >57
CN(Cc1cc2ccccc2[nH]c1=O)C(=O)C1CCCCC1 | -12% | >57
Cn1c(=O)c(=O)n(C)c2cc(S(=O)(=O)N3CCCCCC3)ccc21 | -5% | >57
Cc1ccc(C(c2nnnn2CS(=O)(=O)c2ccc(C)cc2)N2CCC(C(N)=O)CC2)cc1 (configuration not stated) | ? | >57
CC(NC(=O)CCNS(=O)(=O)c1ccc2c(c1)c(=O)n(C)c(=O)n2C)c1ccccc1 (configuration not stated) | -22% | >57
Cc1cc(OCC(=O)N2CCCC2)cc(C)c1Cl | 7% | >57
CCc1ccc(OCc2nnc(SCCN3CCOCC3)n2CC)cc1 | -3% | >57
Cc1ccc(/C=N/c2sc3c(c2C#N)CCCCC3)o1 | 0% | >57
CCN(CC)CCN1C(=O)C2C3c4ccccc4C(c4ccccc43)C2C1=O (configuration not stated) | -12% | >57
CCOc1ccc(-c2nnc(-c3ccco3)o2)cc1 | -8% | nt
COC(=O)c1ccc(NC(=O)c2ccc(N(C)S(C)(=O)=O)cc2)cc1 | -3% | >57
OCCNc1c2c(nc3ccccc13)CCCC2 | -26% | >57
C=CCN1C(=O)C(O)(CC(=O)c2ccc(N)cc2)c2ccccc21 (configuration not stated) | 9% | nt
CC(=O)N1CCC(N(CCN2CCOCC2)C(=O)Nc2ccc(Cl)c(Cl)c2)CC1 | ? | >57
COc1ccccc1NS(=O)(=O)c1ccc(C)c(C(=O)NCC2CCCO2)c1 (configuration not stated) | -5% | >57
COC(=O)C1=C(C)N(Cc2ccccc2)C2=C(C(C)=O)C(c3ccccc3)[C@@](O)(C(=O)OC)C(=O)N2C1c1ccccc1 (some centres not stated) | -7%&-12%[8 µM] | nt
Cc1ccc(-c2nc(Nc3ccccc3)n[nH]2)cc1 | -6% | >57
Cc1cc(Nc2ccc(C)c(Br)c2)n2nc(C)nc2n1 | -3% | >57
OCCn1nc2c3ccccc3nc-2n(-c2ccccc2)c1=S | -9% | >57
NC1=NC(c2ccccc2Cl)n2c(nc3ccccc32)N1 (configuration not stated) | 26% | >57
CCOC(=O)Cc1nnc(NC(=O)CSc2nnc3c4ccccc4n(C(C)C)c3n2)s1 | -4% | >57

Reformatted: results already given
compound,Anthrax LT inh,Prx2 Sm inh
CNC(=O)Cn1c(=O)n(C)c2ccccc21,-1%,>57
OCCN1CCN(CC(O)COc2ccc3ccccc3c2)CC1 (configuration not stated),2%,>57
CC(=O)N1CCN(S(=O)(=O)c2ccc(S(=O)(=O)NC3CC3)cc2)CC1,2%,>57
CC(C)(C)C(=O)/C=C(\N)c1ccncc1,-6%,>57
COc1ccc(OCCOC(=O)c2cccc(-n3cnnn3)c2)cc1,-1%,>57
CN(Cc1cc2ccccc2[nH]c1=O)C(=O)C1CCCCC1,-12%,>57
Cn1c(=O)c(=O)n(C)c2cc(S(=O)(=O)N3CCCCCC3)ccc21,-5%,>57
Cc1ccc(C(c2nnnn2CS(=O)(=O)c2ccc(C)cc2)N2CCC(C(N)=O)CC2)cc1 (configuration not stated),?,>57
CC(NC(=O)CCNS(=O)(=O)c1ccc2c(c1)c(=O)n(C)c(=O)n2C)c1ccccc1 (configuration not stated),-22%,>57
Cc1cc(OCC(=O)N2CCCC2)cc(C)c1Cl,7%,>57
CCc1ccc(OCc2nnc(SCCN3CCOCC3)n2CC)cc1,-3%,>57
Cc1ccc(/C=N/c2sc3c(c2C#N)CCCCC3)o1,0%,>57
CCN(CC)CCN1C(=O)C2C3c4ccccc4C(c4ccccc43)C2C1=O (configuration not stated),-12%,>57
CCOc1ccc(-c2nnc(-c3ccco3)o2)cc1,-8%,nt
COC(=O)c1ccc(NC(=O)c2ccc(N(C)S(C)(=O)=O)cc2)cc1,-3%,>57
OCCNc1c2c(nc3ccccc13)CCCC2,-26%,>57

The listing continues:
SMILES | Anthrax LT inh | Prx2 Sm inh
Cc1cc(-c2nnc(-c3ccccc3)c(-c3ccccc3)n2)c(C)o1 | ? | >57
COCCOC(=O)C1=C(C)NC(=O)NC1c1c(F)cccc1Cl (configuration not stated) | -14% | >57
CCN(CC)CCNC(=O)c1cc2c(-c3ccc(Cl)cc3)nn(C)c2s1 | 10µM* | >57
Cc1nnc2sc(-c3cccc4ccccc34)nn12 | ? | >57
O=C(CN1C(=O)c2cccc3cccc1c23)Nc1ccccc1C(=O)NCc1ccco1 | ? | >57
CCC(OC(=O)c1cccs1)C(=O)NCc1ccco1 (configuration not stated) | 5% | >57
O=C1CN2C(=Nc3ccc(Br)cc3C2c2ccccc2)CCN1 (configuration not stated) | 19% | >57
CC(C)NC(=O)Cn1c(SCC(=O)N2c3ccccc3CC2C)nc2ccccc21 (configuration not stated) | -14% | >57
COc1ccc(CN(CC(=O)NCc2ccco2)C(=O)CCC(=O)Nc2ccccn2)cc1 | 1% | >57
Fc1ccccc1COc1ccc(/C=N/n2cnnc2)cc1 | -17% | nt
CCN1C(=O)NC(c2cc(Br)ccc2OC)C(C(=O)OC)=C1C (configuration not stated) | 1% | >57

Screening data deposited in PubChem by National Center for Advancing Translational Sciences (NCATS).

An excerpt (hit frequency here may not be typical).
